RanGTP-Impb inh: disruptors of Ran-importin-beta complex formation – biochemical, FRET, CFP-Ran, YFP-importin-beta, homogeneous, primary screen; cell-free CFP-Ran/YFP-importin-beta FRET ratio; inhibition, % (no concentration beside the values); 300,000 tested, 1.1% active; AID 2216;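 active = most replicates above 15%; inconclusive = exactly half above 15%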;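 also: 0% = DMSO wells and 100% = Ran loaded with GDP instead of GTP; wells of about 40 µL received 100 nL stock; the first replicate is given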
B2AR ag: human beta-2 adrenergic receptor agonism by FAP. P07550. Am2.2-beta2AR cells, FAP receptor internalization, flow cytometry; reference of the scale not given here. response, % (concentration not given with the values). 340,000 tested, 0.43% active. AID 504454;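 active = response above a set limit, near 3 SD of response in nonfluorescent compounds, cut at about 42% in these data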;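 also: stock transfer was 100 nL into about 11 µL; a reference agonist was the positive control; negative values mostly stem from fluorescent compounds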
HNF4A DNA FP: change in binding of human HNF4 alpha to DNA. P41235. activity change, % at 10 µM. HNF4a-FITC DNA binding, fluorescence polarization, 1 h. 360,000 tested, 0.3% active; in the data active = activity change above about 30%, passing the limit was not always enough;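 also: controls were the assay level and a saturating level of protein; the project sought stronger binding though the title names inhibitors; some compounds called inactive have numbers as strong as hits; positive values seem to mean higher polarization but the record does not say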
Target sequence (P41235 whole entry, looked up): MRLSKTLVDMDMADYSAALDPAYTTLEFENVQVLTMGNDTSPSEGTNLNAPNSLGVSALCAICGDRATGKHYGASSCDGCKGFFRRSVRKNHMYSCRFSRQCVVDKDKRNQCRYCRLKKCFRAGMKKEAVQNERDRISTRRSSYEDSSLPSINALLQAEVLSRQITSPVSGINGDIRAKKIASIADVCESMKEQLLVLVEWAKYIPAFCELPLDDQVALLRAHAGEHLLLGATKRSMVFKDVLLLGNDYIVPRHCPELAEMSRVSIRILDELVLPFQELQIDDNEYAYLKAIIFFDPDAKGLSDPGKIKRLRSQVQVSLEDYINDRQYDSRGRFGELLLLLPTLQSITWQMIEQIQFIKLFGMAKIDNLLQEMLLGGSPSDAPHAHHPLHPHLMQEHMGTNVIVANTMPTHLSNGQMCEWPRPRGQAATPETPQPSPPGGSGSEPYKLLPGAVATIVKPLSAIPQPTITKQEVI
Vif TR-FRET: HIV-1 Vif–A3G interaction blockers – biochemical, TR-FRET, GST-Vif 1-94, biotin-A3G peptide, dose response retest, primary screen (AID 1117319); one-dose inhibition, %; IC50 in µM for titrated hits; TR-FRET GST-Vif / biotin-A3G peptide binding; higher % means a stronger effect; test concentration not given here; strong numbers were not always called active; 260,000 tested, 0.57% active;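 active = above the screen mean plus three standard deviations and confirmed in dose response; inconclusive = results disagree or hit not tested in dose response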;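 also: Vif residues 1-94 fused to GST binding biotinylated APOBEC3G peptide 110-148; 0% = full assay without inhibitor and 100% = GST in place of GST-Vif; retest series ran down from 100 µM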
LANA-H2B inh: blocks KSHV LANA binding to histone H2A/H2B. 320,000 tested, 0.6% active. Q9QR71. inhibition, % (concentration not given with the values). AID 2629. cell-free LANA-H2A/H2B peptide, fluorescence polarization; in the data active = inhibition mostly above about 10%, no sharp cut-off; inactive = mostly below about 6.7%;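 also: stock transfer was 7.5 nL into about 10 µL; 0% = median of vehicle wells and 100% = median of positive control wells; one replicate is shown; the record names a cut of 25% in any replicate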
Calb FLC: C. albicans growth modulation with fluconazole; C. albicans CaCi-2 (fluconazole-resistant clinical isolate) + fluconazole, Alamar Blue growth, 48 h; growth inhibition, % (no concentration beside the values); 300,000 tested, 0.57% active; AID 1979;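 active = most replicates above 75%; inconclusive = exactly half above 75%; inactive = most below 75%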;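 also: all wells also contain fluconazole at 8 µg/ml as a sub-toxic cotreatment; 0% = median of DMSO wells and 100% = median of geldanamycin control wells; wells of about 8 µL received 7.5 nL stock; the first replicate is given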
ALR inh: human ALR oxidase inhibition via reduced H2O2. P55789. purified ALR, DTT oxidation, H2O2 HRP-luminol luminescence. inhibition, % (concentration not given with the values). 290,000 tested, 3.8% active;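 active = mean and each replicate at 75% or more; inconclusive = only one of the two met; inactive = neither met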;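 also: stock transfer was 7.5 nL into about 7.5 µL; 0% = neutral wells and 100% = wells with inactivated enzyme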
Target sequence (P55789 whole entry, looked up): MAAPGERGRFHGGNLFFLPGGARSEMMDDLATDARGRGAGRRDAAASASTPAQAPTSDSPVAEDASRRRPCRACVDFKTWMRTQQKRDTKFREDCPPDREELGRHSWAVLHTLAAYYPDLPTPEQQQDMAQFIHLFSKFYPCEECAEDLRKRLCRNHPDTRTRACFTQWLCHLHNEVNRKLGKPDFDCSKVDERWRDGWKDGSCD
* marks the source's active call; other numbers are inactive results; u = inconclusive; x = not tested or not shown; & = joins results of further samples.

SMILES	RanGTP-Impb inh	B2AR ag	HNF4A DNA FP	Vif TR-FRET	LANA-H2B inh	Calb FLC	ALR inh
CC(=O)Nc1ccc(NC(=O)C2CCCN(S(=O)(=O)c3ccc(Cl)cc3)C2)cc1 (stereo not given)	0.5	-3	1.8	x	2.5	-4	0
C/C(=N\Nc1ccc([N+](=O)[O-])cc1)c1ccc(N2CCOCC2)cc1	-16	14	11	u	6.8	-15	-3
Cn1nc(C(C)(C)C)c(NC(=O)c2sccc2Cl)c1C(C)(C)C	0.8	2	1.7	-13%	-5.8	-7	-14
Cc1ccc(C(=O)Nc2cccnc2N2CCN(C)CC2)cc1	-0.9	1	2.3	x	-0.4	-18	-4
CN(Cc1c(F)cccc1Cl)C(=O)c1cc2ccccc2o1	1.7	17	-3.9	-4%	-1.2	-7	21
CCOC(=O)c1ccc(N2C(=O)C(CC(N)=O)N(NC(=O)c3cccc(F)c3)C2=S)cc1 (stereo not given)	1.3	3	-3.1	-11%	5.1	-3	29
CC1CN(C(=O)c2cc(S(=O)(=O)N3CCCCC3)ccc2Cl)CC(C)O1 (stereo not given)	x	-2	-4.6	3%	-0.5	x	-1
COc1ccc(Nc2cc(C)c3c(O)cccc3n2)cc1	6.7	0	-2.7	30%	-5.4	1	84*
CCOC(=O)NC(=S)Nc1c(C)n(C)n(-c2ccccc2)c1=O	-2.7	5	-0.4	0%	-4.5	-6	1
COc1ccc(CCNC(=O)CSc2ccc3nnc(CCNC(=O)c4ccccc4)n3n2)cc1OC	u	-9	-2.8	x	-2.6	-3	10
Cc1ccc(OCCC(=O)OCC(=O)N2c3ccccc3NC(=O)C2(C)C)cc1	3.1	-4	-1.3	7%	2.2	-5	-19
CC(=O)NC(Cc1cccc(C)c1)C(=O)NC1CCN(C(=O)c2ccc([N+](=O)[O-])cc2)CC1 (stereo not given)	-1.5	-2	1.9	u	-5.8	5	-9
COc1ccc(NC(=O)CN(C)C(=O)CCNC(=O)Nc2ccccc2)cc1	x	0	-0.7	2%	x	x	x
CC(O)CNC12CC3CC(CC(C3)C1)C2 (stereo not given)	-0.1	-3	0.2	-7%	-1.4	3	x
O=C(NCc1ccncc1)/C(=C\c1ccc(F)cc1)NC(=O)c1ccccc1	2.1	0	0.8	x	3.9	-6	-15

The last 3 records of the part above are carried over, then new ones follow:
SMILES	RanGTP-Impb inh	B2AR ag	HNF4A DNA FP	Vif TR-FRET	LANA-H2B inh	Calb FLC	ALR inh
COc1ccc(NC(=O)CN(C)C(=O)CCNC(=O)Nc2ccccc2)cc1	x	0	-0.7	2%	x	x	x
CC(O)CNC12CC3CC(CC(C3)C1)C2 (stereo not given)	-0.1	-3	0.2	-7%	-1.4	3	x
O=C(NCc1ccncc1)/C(=C\c1ccc(F)cc1)NC(=O)c1ccccc1	2.1	0	0.8	x	3.9	-6	-15
CCCCCCCCCCCCN1[C@@H](CC(C)=O)c2cc(F)ccc2S1(=O)=O	-1.8	-5	2.9	x	1.7	3	-18
Cn1c(=O)n(C)c2cc([N+](=O)[O-])c(N3CCN(C(=O)c4ccccc4)CC3)cc21	-1.8	-9	1.8	18%	2.1	-11	x
COc1ccc(S(=O)(=O)N2CCSCC2)cc1C(N)=O	2.0	-6	-0.6	x	1.8	3	-28
O=C(NC1CCCCC1)c1ccc(S(=O)(=O)N2CCCCC2)cc1	-3.0	-4	-2.2	17%	-1.6	-26	2
Cc1nnc(SCC(=O)Nc2nccs2)o1	2.7	-2	33	9%	1.3	-2	-3
COc1ccccc1C1C2=C(CCCC2=O)N(CC(=O)O)C2=C1C(=O)CCC2	118*	-6	-7.7	15%	12	u	-2
O=C(NCC1COc2ccccc2O1)Nc1ccccc1F (stereo not given)	2.6	-8	2.1	4%	5.1	-21	x
Cc1ccc2sc(NC(=O)c3ccc(N4C(=O)CCC4=O)cc3)nc2c1C	1.6	-1	1.4	13%	0.4	6	-6
O=C1COc2ccccc2N1Cc1ccc(Cl)cc1	-3.1	-2	0.5	x	-1.8	-5	-10
O=C(Cn1cc([N+](=O)[O-])cn1)Nc1ccn(Cc2c(F)c(F)cc(F)c2F)n1	0.8	-2	-3.4	1%	3.3	-11	-40
CC(=O)CSc1nnc(CSc2ncccn2)n1C1CCCCC1	-5.3	-26	-2.6	-2%	4.0	-2	-2
CN(C)CCCn1c(=O)n(Cc2ccco2)c(=O)c2c3c(sc21)CCCCC3	-1.3	2	6.8	-6%	2.8	4	6
CCn1c(C)nc2cc(C(=O)N/N=C/c3cccc(O)c3O)ccc21	4.8	-1	1.5	u	-2.7	23	99*
N#Cc1ccc(OCC(=O)N/N=C2/CC(c3ccccc3)Oc3ccccc32)cc1 (stereo not given)	-3.7	-4	2.3	x	-0.9	-4	x
COc1ccc(Cl)cc1C=CC=Nc1ccccc1O	x	4	19	1%	x	x	x

Whole records as entered above.
CC(=O)CSc1nnc(CSc2ncccn2)n1C1CCCCC1 is listed as RanGTP-Impb inh = -5.3; B2AR ag = -26; HNF4A DNA FP = -2.6; Vif TR-FRET = -2%; LANA-H2B inh = 4.0; Calb FLC = -2; ALR inh = -2
Cc1nnc(SCC(=O)Nc2nccs2)o1 is listed as RanGTP-Impb inh = 2.7; B2AR ag = -2; HNF4A DNA FP = 33; Vif TR-FRET = 9%; LANA-H2B inh = 1.3; Calb FLC = -2; ALR inh = -3

Next part:
SMILES	RanGTP-Impb inh	B2AR ag	HNF4A DNA FP	Vif TR-FRET	LANA-H2B inh	Calb FLC	ALR inh
O=C(c1cc(COc2ccc(F)c(F)c2)on1)N1CCN(C/C=C/c2ccccc2)CC1	5.3	1	-2.1	x	x	-10	x
CNC(=S)Nc1ccc(Nc2ccccc2)cc1	0.3	-5	-2.6	7%	3.0	12	99*
CCC(C)(C)NC(=O)C(c1ccc(OC)cc1)N(C(=O)CCC(=O)Nc1cc(C)on1)c1ccc2c(c1)OCCO2 (stereo not given)	1.3	-4	-0.9	x	0.3	4	-4
CC/C(=N\NC(=O)C(N)=O)c1ccccc1O	1.9	8	-0.9	19%	0.7	1	-25
CCC(OC(=O)c1nsc(Cl)c1Cl)C(=O)NC(C)(C)CC (stereo not given)	-1.7	0	-3.2	-6%	3.0	-6	1
NS(=O)(=O)c1cccc(C(=O)OCC(=O)NC2CCCc3ccccc32)c1 (stereo not given)	x	2	-3.0	x	-4.3	x	-4
O=C(O)CC1C(=O)NCCN1Cc1cccs1 (stereo not given)	1.5	-2	-2.8	-9%	-2.5	22	-8
O=C(NCc1ccc(Cl)cc1Cl)Nc1ccccc1	1.5	-9	0.7	x	1.5	3	-8
CCn1ccc(=O)c2cc3c(cc21)OCO3	-0.3	-11	-0.9	x	-0.6	-2	6
COCCN(C(=O)COC(=O)c1cc2ccccc2cc1OC)c1c(N)n(Cc2ccccc2)c(=O)[nH]c1=O	u	3	2.6	3%	-7.2	-9	-13
Cc1cc(C)nc(SCC(=O)Nc2ccc(S(=O)(=O)NC(C)(C)C)cc2)n1	-0.6	24	-1.4	1%	-6.1	48	0
Cc1ccc(-n2nc3c(=O)n(C(C)C(=O)NCCC4=CCCCC4)nc(C)c3c2C)cc1 (stereo not given)	2.5	2	0.8	x	0.1	9	x
COCCN(CCOC)CC(O)COC(c1ccccc1)c1ccccc1 (stereo not given)	2.2	-12	2.0	-5%	-7.6	-34	-6
CCOC(=O)c1ccccc1NC1c2ccccc2C(=O)N1C1CCN(C(=O)OCC)CC1 (stereo not given)	u	4	0.9	-6%	-0.8	-5	-15
COc1cccc(/C=C(/C#N)c2nc3ccccc3[nH]2)c1OC(C)C(=O)O (stereo not given)	2.7	-6	-5.0	-2%	-2.9	0	13
CC1(C)Cc2cccc(OCC(=O)N3CCN(c4ccc([N+](=O)[O-])cc4)CC3)c2O1	-1.5	23	1.4	4%	-1.4	16	-5
Cc1cc(C)n(-c2ccc(C(=O)NCCCN3CCOCC3)cc2)n1	4.2	2	0.8	-6%	5.0	-1	-12
O=C(c1cccs1)N1CCc2c([nH]c3ccccc23)C1c1ccc(Cl)cc1 (stereo not given)	3.9	6	-1.2	-1%	-3.9	-6	x
CCOc1ccc2nc(NC(=O)C(NS(=O)(=O)c3cccs3)C(C)C)sc2c1 (stereo not given)	u	2	2.4	-5%&-7%	6.2	-10	-5
O=C1NC(=O)/C(=C\c2ccc(OCc3cccc(C(=O)O)c3)c(Cl)c2)N1	4.7	13	-3.2	-14%	6.6	16	-1
CC(=O)Nc1ccc(S(=O)(=O)Nc2nc3ccccc3nc2N2CCCCCC2)cc1	0.1	-12	-1.2	3%	2.0	u	55
COc1cc(OC)c(C(=O)Nc2ccc3ccccc3c2)cc1OC	-2.1	7	-3.4	1%	0.2	13	-4
O=C(COc1ccc2c(c1)CCC2)N1CCN(c2ccc(F)cc2)CC1	4.2	9	3.7	5%	-8.2	12	1
COc1ccc(Nc2cnn(-c3nc4ccccc4s3)c(=O)c2Cl)cc1	0.6	15	-1.2	x	3.9	27	47
CC(C)c1nc2sc3ccccc3c(=O)c2c(=O)n1Cc1ccccc1	u	11	-5.2	-24%	-6.0	-1	-4
Cc1ccc(NC(=O)CN2C(=O)NC3(CCCC3)C2=O)nc1	5.3	-5	0.8	-3%	-1.0	2	-2
COc1ccc(C(=O)C2CCCN(C/C=C/c3ccccc3OC)C2)c(OC)c1 (stereo not given)	2.9	-7	2.3	0%	0.0	-44	-10
O=C(CCCCCN1C(=O)c2ccccc2C1=O)NC1CCCC1	1.3	-2	-1.4	0%	-2.9	9	3
COc1ccc(NC(=O)CN2CCN(c3ccccc3C)CC2)cc1	-3.5	-5	-0.2	x	3.5	3	1
CCC(=O)Nc1ccc(C(=O)CSc2nnc(-c3ccc(O)cc3)n2CC2CCCO2)cc1 (stereo not given)	-0.6	-1	3.8	6%	2.3	u	-8
COc1ccc(C(C(=O)NC2CCCC2)N(Cc2cccnc2)C(=O)c2snc(C(N)=O)c2N)cc1 (stereo not given)	2.7	2	1.5	x	4.8	0	0
CCOC(=O)c1c(C)oc2c1c(C=NCCO)c(O)c1ccccc12	-5.3	-1	-7.7	15%	x	25	x
Nc1ccc(C(=O)N2CCN(S(=O)(=O)c3ccc4c(c3)OCCO4)CC2)cc1[N+](=O)[O-]	6.4	11	-2.7	x	-7.1	11	-1
Clc1ccc(CN=C2Nc3ccccc3CS2)cc1	2.7	-12	-2.4	5%	-3.1	-25	-7
CC(Nc1cc(N2CCNCC2)ccc1[N+](=O)[O-])c1ccccc1 (stereo not given)	1.5	6	-1.6	4%	-5.4	4	-1
CCN(Cc1ccccc1)S(=O)(=O)c1cc2c3c(c1)CCN3C(=O)CC2	u	-3	0.8	-3%	x	-4	x
CC(=O)N(C1=C(N2CCOCC2)C(=O)c2ccccc2C1=O)c1ccc(C(=O)O)cc1	4.4	8	-1.6	14%	1.8	35	-16
CCOc1ccccc1NC(=O)COC(=O)c1cc(C)oc1C	x	-4	-3.5	4%	0.8	x	0
CCOC(=O)CSc1nc2ccccc2n1C(=O)OCC	4.0	1	22	-6%	-2.7	8	-7
Cc1c(Cl)cccc1NC(=O)CC1SCCNC1=O (stereo not given)	3.7	1	0.5	-1%	-7.3	-4	-11
CCCCNC(=O)CSc1nc2ccc(Nc3nc(N4CCOCC4)nc(N4CCOCC4)n3)cc2s1	2.0	15	1.0	-2%	5.6	8	-2
COc1ccc(C2CC(c3ccccc3)=NN2c2ccc(S(N)(=O)=O)cc2)cc1OC (stereo not given)	-1.8	-1	-4.5	-2%	4.8	-4	-17

Assay outcomes as filed in PubChem BioAssay.
